GALR2 ag = agonists of human galanin receptor 2 (GALR2); GALR2-expressing cells, agonist activation read-out; activation, %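 (tested at 5 µM)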; 140,000 tested, 0.48% active;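 active = above mean plus 3 SD of all compounds, about 5% in these data, not always enough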;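 note: 0% = vehicle buffer wells and 100% = reference agonist at full effect; tested in CHO reporter cells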
PKD1 inh = blocks activity of human protein kinase D1 | Q15139 | PKD1 kinase fluorescence polarization assay | inhibition, %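 (about 10 µM by stock and volumes)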 | 200,000 tested, 0.056% active;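 active = inhibition of 50% or more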;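 note: controls were vehicle for no effect and a reference inhibitor for full effect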
Target sequence (Q15139 whole entry, looked up): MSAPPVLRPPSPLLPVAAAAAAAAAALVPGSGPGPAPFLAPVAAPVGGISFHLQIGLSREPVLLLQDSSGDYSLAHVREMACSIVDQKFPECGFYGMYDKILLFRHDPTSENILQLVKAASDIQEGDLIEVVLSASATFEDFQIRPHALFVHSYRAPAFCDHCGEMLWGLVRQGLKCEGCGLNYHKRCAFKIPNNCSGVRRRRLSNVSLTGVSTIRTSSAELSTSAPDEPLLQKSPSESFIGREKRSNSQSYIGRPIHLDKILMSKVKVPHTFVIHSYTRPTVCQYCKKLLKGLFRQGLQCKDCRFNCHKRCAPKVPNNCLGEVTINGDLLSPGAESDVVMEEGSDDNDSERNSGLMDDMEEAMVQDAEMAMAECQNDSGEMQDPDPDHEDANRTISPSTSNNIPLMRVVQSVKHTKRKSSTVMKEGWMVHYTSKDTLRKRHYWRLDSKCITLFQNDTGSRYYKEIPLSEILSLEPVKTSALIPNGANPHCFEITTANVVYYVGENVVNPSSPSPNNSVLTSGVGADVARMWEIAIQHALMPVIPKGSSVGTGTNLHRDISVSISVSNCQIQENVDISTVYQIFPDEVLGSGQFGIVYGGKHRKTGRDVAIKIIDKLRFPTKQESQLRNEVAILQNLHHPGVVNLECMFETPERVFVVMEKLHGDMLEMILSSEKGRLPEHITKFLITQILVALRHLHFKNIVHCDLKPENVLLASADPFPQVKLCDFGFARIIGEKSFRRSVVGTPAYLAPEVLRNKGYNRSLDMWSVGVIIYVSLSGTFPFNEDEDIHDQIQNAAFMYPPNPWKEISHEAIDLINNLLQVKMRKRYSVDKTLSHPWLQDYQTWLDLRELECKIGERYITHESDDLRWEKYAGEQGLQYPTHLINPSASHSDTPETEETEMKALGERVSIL
HSV replic up = HSV replication enhancement | maximum fold increase | 220,000 tested, 0.005% active | HSV replication augmentation in cells, fold increase;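 active = peak rise of 1.5-fold or more in the series; inconclusive = self-fluorescent or not available for retest; tested in PC3 cells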;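 note: first round at 10 µM; read as green reporter fluorescence; hits show the peak of a series up to 25 µM; 1 = signal of infected wells without compound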
RGS16-Gao = modulates binding between human RGS16 and Galphao; bead-based flow cytometry RGS16-Galphao binding, fluorescence; actives lie on both sides; O15492+P09471; 220,000 tested, 0.38% active; binding response (% of control), % at 10 µM;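 active = below 25% or above 175%, edge rows of some plates excepted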;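 note: Galphao activated by GDP with aluminum fluoride before binding; 100% = wells without compound and 0% = beads without RGS; some results beyond the cut were filed as inactive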
INS promoter inh = TRM-6 insulin promoter activity inhibition; TRM-6 cells (human fetal islet line), insulin promoter-eGFP reporter, imaging; reporter expression induced with tamoxifen; inhibition, % at 2 µM; 130,000 tested, 0.9% active; AID 1273;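 active = inhibition above the mean plus 3 SD, with well images judged a real hit on visual review, cut at about 60% in these data, passing the limit was not always enough; inconclusive = inhibition over the cutoff but images rejected on review; inactive = inhibition not above the cutoff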
INS promoter inh cell count = second read-out of INS promoter inh, no call of its own (marks repeat the call); normalized cell count, %; measured here: cell count, toxicity; reference of the scale not given here;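 cells exposed to compound for 48 h; stained nuclei by imaging scaled within each plate; lower means fewer cells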
HSV replic up primary fold = also measured in HSV replic up; calls as there; fold increase; compound at 10 µM; measured here: primary screen fold increase 10 uM; tested in PC3 cells;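 GFP signal in the first replicate; 1 = infected wells without compound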
* marks the source's active call; other numbers are inactive results; i = inactive; ? = inconclusive; . = no result given.

SMILES	GALR2 ag	PKD1 inh	HSV replic up	HSV replic up primary fold	RGS16-Gao	INS promoter inh	INS promoter inh cell count
CCN(C(=O)c1cnc(N2CCN(c3ncccn3)CC2)c2ccccc12)c1cccc(Cl)c1	0.2	1.0	i	1.04	99.7	-18.2	69.3
CC(C)NC(=O)c1ccc(COCC(F)(F)F)cc1	-2.5	-3.9	i	1.02	102.4	-23.9	120.8
O=S(=O)(N/N=C/c1ccccc1OCc1ccc(Cl)cc1)c1ccccc1	-0.9	3.0	i	0.77	98.8	-16.1	58.9
O=[N+]([O-])c1cc(S(=O)(=O)Nc2ccc(Cl)cc2)ccc1N/N=C/c1ccncc1	.	-3.9	i	0.87	104.8	.	.
CCc1ccccc1NC(=O)CCC(=O)OCC(=O)c1ccc(-c2ccccc2)cc1	0.0	-4.3	i	0.97	19.8	-8.1	70.9
O=C1CC(Sc2ncccn2)C(=O)N1c1ccccc1C(F)(F)F (stereo unspecified)	-3.7	-2.9	i	1	101.4	21.2	81.4
O=C(O)CC(Cc1ccccc1)C(=O)Nc1ccc([N+](=O)[O-])cc1 (stereo unspecified)	1.0	-15.4	i	0.9	103.9	.	.
COc1ccccc1N1CCN(C(c2cc3ccc(C)cc3[nH]c2=O)c2nnnn2C2CCCC2)CC1 (stereo unspecified)	-1.9	-12.1	i	1.16	100.6	44.4	67.0
NC(Cc1ccc(O)c([N+](=O)[O-])c1)C(=O)O (stereo unspecified)	-0.6	-10.2	i	0.95	105.0	-55.6	104.4
O=C(CSC1=NC(=O)C(Cc2ccccc2)C(=O)N1)Nc1ncc(Br)cc1Br (stereo unspecified)	.	-9.2	i	1.01	98.3	-40.0	86.1
Cc1c(NC(=O)/C(=C/c2cccs2)c2cccs2)c(=O)n(-c2ccccc2)n1C	-1.2	-5.9	i	0.88	95.0	.	.
Cc1noc(C)c1S(=O)(=O)NCCc1ccc(S(N)(=O)=O)cc1	-1.9	-3.6	i	0.71	106.1	.	.
CCSc1nnc2c(n1)OC1(CCCC1)Nc1ccccc1-2	-4.5	-9.2	i	0.87	100.5	.	.
CCn1cc([N+](=O)[O-])c(C(=O)N2N=C(c3ccc4ccccc4c3)CC2c2ccccc2O)n1 (stereo unspecified)	-0.8	3.5	?	.	100.1	55.6	72.9
CCOC(=O)c1cnc(-n2nc(C)cc2C)nc1N(C)C	-1.0	6.5	i	0.86	104.8	-14.3	114.0
Cc1ccc(S(=O)(=O)NCCSc2nnnn2-c2ccccc2)cc1	-2.4	1.6	i	1.12	51.6	-25.0	87.6
CCc1nnc(SCC(=O)Nc2ccc3c(c2)OCO3)o1	-3.2	10.7	i	0.95	92.7	67.9*	72.4*
S=c1[nH]nc(-c2ccccc2)c2ccccc12	.	-6.5	i	0.92	97.9	.	.
Cc1ccc(C(C(=O)Nc2ccc3c(c2)OCO3)N(C)C(=O)/C=C\c2ccc3c(c2)OCO3)cc1 (stereo unspecified)	-1.2	-1.9	i	0.96	106.5	13.3	121.2
CN(C(=S)NC(=O)Cc1ccccc1)c1ccccc1	.	4.8	i	1.02	101.3	21.4	108.1
c1csc(-c2nc(-c3ccncc3)no2)c1	-1.5	-4.5	i	0.98	107.3	-15.2	94.2
CC1CCN(CC(=O)Nc2ccccc2Sc2ccccc2)CC1	-0.3	-6.8	i	1.13	141.9	23.3	71.0
O=C(CN1CCN(CCO)CC1)Nc1ccccc1	-1.2	-7.2	i	1	102.0	38.1	109.3
CCOc1cccc(=O)c2c(C)n(Cc3ccccc3)c(C)c12	.	-1.5	i	1.06	98.8	.	.
CCn1cc(C(=O)N/N=C(/C)c2ccc(F)cc2)c(=O)c2cc(F)c(N3CCCC3)cc21	-1.7	-12.0	i	0.82	105.1	13.5	99.1
COP(=O)(OC)C(Nc1cc(Cl)cc(Cl)c1)c1cccc(O)c1 (stereo unspecified)	.	-0.7	i	1.01	104.6	-36.8	69.8
C/C(N)=C(/C#N)C(=O)COC(=O)c1oc2ccccc2c1COC(C)C	.	-3.7	i	0.98	97.2	.	.
COc1ccc(Cn2c(C)nc3oc4cc(OC)ccc4c(=O)c3c2=O)cc1	0.3	8.7	i	0.99	92.2	.	.
COc1cc(C=Nc2ccccc2C(=O)Nc2ccccc2)cc(OC)c1OC	-2.0	-1.2	i	0.98	109.5	57.1	117.8
COc1ccc(-c2cc(=O)c3c(O)c(OC)c(O)cc3o2)cc1	.	-4.3	i	0.69	98.8	.	.

Additional compounds:
SMILES	GALR2 ag	PKD1 inh	HSV replic up	HSV replic up primary fold	RGS16-Gao	INS promoter inh	INS promoter inh cell count
O=C(CSCCO)Nc1ccc(C23CC4CC(CC(C4)C2)C3)cc1	-1.1	5.9	i	0.87	105.4	-50.0	70.2
COc1cc(C(CC(=O)O)n2cnnn2)ccc1OC(C)C (stereo unspecified)	.	-1.2	i	0.96	107.3	-35.0	154.7
COc1ccc(C(=O)CNc2ccc3ccccc3c2)cc1	.	6.0	i	1.09	118.5	.	.
COc1ccc(N2C(=O)CC(N3CCOCC3)C2=O)cc1 (stereo unspecified)	-1.0	-6.0	i	1.02	106.9	0.0	109.1
C/C(=N\NS(=O)(=O)c1ccccc1)c1ccccc1	.	-0.6	i	0.92	92.0	50.0	104.0
O=C(COC(=O)c1c2c(nc3ccccc13)/C(=C\c1cccs1)CCC2)Nc1ccccc1	-0.1	-12.2	i	0.83	100.7	-13.3	72.1
C=CCC1c2cccc(C(=O)O)c2C(=O)N1c1ccc(Cl)cc1 (stereo unspecified)	-1.2	2.8	i	0.87	103.4	28.6	95.1
CC(C)c1nc(SCC(=O)Nc2ccc([N+](=O)[O-])cc2Br)n[nH]1	.	2.2	i	0.99	100.0	.	.
O=C(COC(=O)CC1CC2CCC1C2)Nc1ccc(F)cc1 (stereo unspecified)	.	-6.0	i	0.94	99.9	.	.
NC(=O)N/N=C/c1sc(=O)n(-c2ccccc2)c1Cl	.	.	i	0.74	92.0	.	.
CC(C)OCCCNC(=O)C1CCN(S(=O)(=O)N2CCCCC2)CC1	0.8	-17.8	i	1.05	64.5	-53.9	128.1
CC(=O)c1ccc(NC(=O)C(C)Sc2nnnn2C)cc1 (stereo unspecified)	0.5	-11.3	i	0.95	105.0	.	.
O=[N+]([O-])c1ccc(OCC2CC(c3ccccc3)=NO2)cc1 (stereo unspecified)	.	.	i	0.99	93.8	.	.
COc1ccc(-n2c(Cc3cccn3C)nnc2SCC(=O)Nc2ccccc2)cc1	-1.9	2.3	i	1.14	113.3	.	.
CC(C)(C)OC(=O)N1CCC(c2cc(-c3cccs3)n[nH]2)CC1	.	7.8	i	1.01	94.5	.	.
CCOc1cc(N2CCOCC2)c(OCC)cc1NC(=O)c1ccc2ccccc2n1	.	-5.6	i	0.84	97.7	.	.
CCOC(=O)c1oc2ccc(S(=O)(=O)n3nc(-c4ccccc4)cc3N)cc2c1C	0.6	0.1	i	0.87	102.3	.	.
N#CC1=C(N2CCCCC2)c2cc3c(n2C1=O)CCCC3	0.5	-1.4	i	0.933	102.2	13.5	85.2
CCCC(C)c1nnc(NC(=O)c2cc(C(=O)OC)cc([N+](=O)[O-])c2)s1 (stereo unspecified)	-1.0	-6.0	i	0.98	76.6	6.7	117.2
CN1CCN(NC(=S)NC2CCCC2)CC1	.	1.6	i	0.99	95.5	.	.
CCc1nnc(NC(=O)c2c(OC)cccc2OC)s1	-1.1	6.1	i	0.93	105.2	i	47.2
CCOC(=O)c1cccc2c1-c1ccccc1/C2=N/O	-0.5	26.6	.	.	106.3	.	.
COc1ccc(C2=NN(Cc3ccccc3)C3C(=O)NC(=O)C23)cc1 (stereo unspecified)	.	5.3	i	0.94	102.8	.	.
CCOc1cc(N2CCOCC2)c(OCC)cc1NC(=O)COc1cccc2cccnc12	-0.4	0.2	i	0.66	237.8	.	.
COCCCNC(=O)Nc1ccc(Br)cc1Cl	-2.0	-5.8	i	0.94	95.2	65.5	128.2
Nc1ccc(C(=O)Nc2ccc(Nc3ccncc3)cc2)cc1	.	.	i	1.08	101.8	.	.
CC(=O)NC(Cc1c[nH]c2ccccc12)C(=O)NCc1ccc2c(c1)OCO2 (stereo unspecified)	2.1	-0.7	i	1.02	99.4	23.7	130.8
Cc1ccccc1-n1c(Cn2c(=O)sc3ccccc32)nnc1SCC(N)=O	1.6	-1.0	i	0.86	110.1	-100.0	88.4
Cc1ccc(C(=O)/C=C/Nc2ccccc2C(N)=O)cc1	0.7	-2.5	i	0.89	90.8	7.7	154.3
COc1ccc2o/c(=N/NC(=S)Nc3ccccc3)c(C(N)=O)cc2c1	-1.9	-6.7	i	1.01	104.9	.	.

The results go on:
The line under a structure holds: GALR2 ag, PKD1 inh, HSV replic up, HSV replic up primary fold, RGS16-Gao, INS promoter inh, INS promoter inh cell count
Cc1ccc(S(=O)(=O)N(C)c2ccc(C(=O)Nc3c(C)n(C)n(-c4ccccc4)c3=O)cc2)cc1
  ., -4.2, i, 1.04, 98.2, ., .
CC1CCCCC1NCC#CCOc1ccc(Cl)cc1 (stereo unspecified)
  ., 3.5, i, 0.92, 96.8, ., .
Cc1nc(Nc2cccc(C(F)(F)F)c2)nc2c1C(=O)CC(C)C2 (stereo unspecified)
  -2.4, -6.7, i, 0.93, 86.5, 27.8, 81.9
O=C(Nc1ccc(F)cc1)/C(=C1/CCCCCN1)[N+](=O)[O-]
  ., ., i, 0.89, 102.1, ., .
Cc1nn(-c2ccc(F)cc2)c(C)c1NS(=O)(=O)c1ccc2ccccc2c1
  -1.8, 6.6, ., ., 82.3, 2.7, 104.2
CCCC(=O)Nc1sc2c(c1C(=O)OC)C(C(=O)OC)CC2 (stereo unspecified)
  -0.7, -7.4, i, 0.97, 108.0, 34.9, 69.8
O=C(O)C1CCCN1c1ncnc2ccccc12 (stereo unspecified)
  -2.3, -9.7, i, 0.86, 149.6, 23.1, 128.6
CC(C)NC(=O)c1cc2cc(Br)ccc2oc1=O
  -0.3, 1.4, i, 0.94, 98.9, -128.6, 84.0

A second format for part of the listing above:
> CCOC(=O)c1oc2ccc(S(=O)(=O)n3nc(-c4ccccc4)cc3N)cc2c1C
  GALR2 ag = 0.6 | PKD1 inh = 0.1 | HSV replic up = i | HSV replic up primary fold = 0.87 | RGS16-Gao = 102.3 | INS promoter inh = . | INS promoter inh cell count = .
> N#CC1=C(N2CCCCC2)c2cc3c(n2C1=O)CCCC3
  GALR2 ag = 0.5 | PKD1 inh = -1.4 | HSV replic up = i | HSV replic up primary fold = 0.933 | RGS16-Gao = 102.2 | INS promoter inh = 13.5 | INS promoter inh cell count = 85.2
> CCCC(C)c1nnc(NC(=O)c2cc(C(=O)OC)cc([N+](=O)[O-])c2)s1 (stereo unspecified)
  GALR2 ag = -1.0 | PKD1 inh = -6.0 | HSV replic up = i | HSV replic up primary fold = 0.98 | RGS16-Gao = 76.6 | INS promoter inh = 6.7 | INS promoter inh cell count = 117.2
> CN1CCN(NC(=S)NC2CCCC2)CC1
  GALR2 ag = . | PKD1 inh = 1.6 | HSV replic up = i | HSV replic up primary fold = 0.99 | RGS16-Gao = 95.5 | INS promoter inh = . | INS promoter inh cell count = .

Source: PubChem

Not a hit list; any-hit rate near 1.3%.
